# Mtb bLac sens: beta-lactam sensitization of Mtb H37Rv, H37Rv; M. tuberculosis H37Rv growth with meropenem, percent inhibition; hits of this screen are not shown here; inhibition, % at 25 µM; hit rate 0.27% among 330,000; AID 434955, 2010;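 active = about 74% or more and at least 40 points above the plate without the antibiotic, then above 30% in a dose series; inconclusive = first-round hits that could not be retested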;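 note: growth measured after seven days incubation then overnight dye step; 0% = bacteria only wells and 100% = bacteria with antibiotic; twin plates without the antibiotic show which effects depend on it; some results filed as inactive read as strong as hits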
# YopH inh: YopH tyrosine phosphatase inhibitors, primary screen, biochemical, fluorescence Ex485/Em525. inhibition, %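 (about 10 µM by stock and volumes)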. hit rate 0.16% among 140,000. AID 898, 2007;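 active = inhibition of 50% or more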;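 note: controls were vehicle for no effect and minimum signal wells for full effect; inactives centre near -20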
# RecA intein inh: Mtb RecA intein splicing inhibitors, primary screen, biochemical, fluorescence, HTS | Protein RecA (Mycobacterium tuberculosis (strain ATCC 25618 / H37Rv)), P9WHJ3 | cell-free RecA intein splicing | inhibition, %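 (about 9 µM by stock and volumes)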 | hit rate 0.75% among 290,000 | AID 2221, 2009; in the data active = inhibition above about 30%; inconclusive = no clear call, values can overlap the other calls;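 note: 0% = vehicle wells and 100% = reference inhibitor control wells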
# Target sequence (P9WHJ3 whole entry, looked up): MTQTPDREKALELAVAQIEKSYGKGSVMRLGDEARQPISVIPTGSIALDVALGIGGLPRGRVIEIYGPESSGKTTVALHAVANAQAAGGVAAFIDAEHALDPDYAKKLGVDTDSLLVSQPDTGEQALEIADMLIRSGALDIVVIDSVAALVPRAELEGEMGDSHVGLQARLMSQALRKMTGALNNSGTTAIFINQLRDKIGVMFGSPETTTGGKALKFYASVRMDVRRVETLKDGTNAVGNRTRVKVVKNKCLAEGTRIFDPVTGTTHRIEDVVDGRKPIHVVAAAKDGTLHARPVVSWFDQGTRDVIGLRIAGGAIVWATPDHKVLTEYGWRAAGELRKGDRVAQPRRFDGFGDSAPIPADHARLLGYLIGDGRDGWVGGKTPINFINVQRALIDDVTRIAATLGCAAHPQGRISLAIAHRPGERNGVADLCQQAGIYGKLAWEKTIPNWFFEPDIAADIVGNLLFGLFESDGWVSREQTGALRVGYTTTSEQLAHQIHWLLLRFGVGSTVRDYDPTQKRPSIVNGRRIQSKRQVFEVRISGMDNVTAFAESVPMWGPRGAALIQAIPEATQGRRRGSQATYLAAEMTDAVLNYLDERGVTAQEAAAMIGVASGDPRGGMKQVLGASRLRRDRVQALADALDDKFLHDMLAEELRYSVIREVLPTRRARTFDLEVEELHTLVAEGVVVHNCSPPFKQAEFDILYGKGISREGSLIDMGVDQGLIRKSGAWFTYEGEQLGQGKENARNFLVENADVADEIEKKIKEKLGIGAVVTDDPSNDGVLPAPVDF
# Mtb growth: M. tuberculosis H37Rv growth inhibitors, H37Rv strain (AID 1626); M. tuberculosis H37Rv growth inhibition; higher % means a stronger effect; one-dose inhibition, % at 10 µM; IC50 in µM for titrated hits; hit rate 0.95% among 220,000;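 active = confirmed in a dose series; inconclusive = inhibition above 80% but not taken into the dose series; inactive = below 80% or under 30% at every dose of the series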;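 note: bacteria incubated seven days before Alamar blue readout; 0% = bacteria only wells and 100% = bacteria with antibiotic wells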
# Arbovirus inh: antivirals against arbovirus infection, primary screen, cell-based, full library, 10K replicate subset. arbovirus infection cell-based antiviral screen. inhibition, % at 10 µM. hit rate 0.37% among 200,000;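 active = inhibition from about 30%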;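 note: bluetongue infection of BSR cells; cell survival read as ATP light after 72 h; 0% = infected wells without compound and 100% = uninfected wells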
# Arbovirus inh repeat: recorded beside Arbovirus inh, whose call it bears; inhibition, %; measured here: 10K subset replicate screen; many hits read low in the repeat;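 first of two repeat runs on a subset; 0% = infected and 100% = uninfected wells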
# * hit, by the source's call; u = inconclusive; x = no result given; & = joins results of further samples. Only part of the results is shown. The share of hits here may be higher or lower than overall.
SMILES,Mtb bLac sens,YopH inh,RecA intein inh,Mtb growth,Arbovirus inh,others
COc1ccc(NS(=O)(=O)c2ccc(N3CCCC3)c(N)c2)cc1,-11,x,-2.3,x,x,
CC/C(=C/c1ccccc1)c1cccc2[nH]c3c(OC)cccc3c12,-16,x,-1.8,x,x,
Cc1ccc(CN2CCC(n3nccc3NC(=O)C3CCOC3)CC2)cc1C (stereo not drawn),3,x,0.0,x,x,
COc1ccc(-c2cc(C(=O)N3CCN(c4ccccc4O)CC3)c3ccccc3n2)cc1OC,78,x,8.1,x,x,
COc1cc(C(=O)Oc2ccc3ccc(O)cc3c2)cc(OC)c1OC,91,x,-2.4,x,x,
C#CCNC(=O)C1=C[C@H](c2ccc(C(F)(F)F)cc2)C[C@H](OCc2ccc(CO)cc2)O1,-1,x,7.6,-13%,-4,
Cc1ccc(C(=O)c2c[nH]c3c(F)cc(F)cc3c2=O)cc1,6,-17,-3.1,3%,-11,
Cc1ccc(S(=O)(=O)N(C)C)cc1NC(=O)c1ccc2ccccc2n1,-2,x,x,14%,x,
COc1ccc(Oc2ccc(N/C=C/C(=O)C(C)(C)C)cc2)cc1,93,x,6.1,75µM*,-3,
O=C1C(=O)N(Cc2ccccc2)C(c2cccc(O)c2)/C1=C(\O)c1ccc2c(c1)OCCO2 (stereo not drawn),-2,x,-1.9,x,x,
COc1ccc(S(=O)(=O)Nc2ccc(N(C)C(C)=O)cc2)cc1,0,5,0.0,-9%,1,
O=C(NCc1ccc2c(c1)OCO2)c1ccc2c(c1)C(=O)N(CC1CCCO1)C2=O (stereo not drawn),-1,1,-7.7,4%,1,
COC(=O)[C@H](Cc1ccccc1)NC(=O)NCCc1ccc(F)cc1,-5,x,2.0,-7%,x,
Cc1ccc(N(CC(=O)N2CCN(c3ccccc3F)CC2)S(=O)(=O)c2c(C)noc2C)cc1,-3,x,-3.4,x,x,
COc1ccccc1-c1noc(-c2ccco2)n1,-2,-9,-0.9,-4%,-5,
CCOC(=O)C1(CCOC)CCN(Cc2ccc3nonc3c2)CC1,3,x,0.1,2%,x,
Cc1c(Nc2nc3ccccc3nc2N2CCN(c3ccccc3)CC2)c(=O)n(-c2ccccc2)n1C,21,-20,-1.9,6%,10,Arbovirus inh repeat=7
c1coc(C2=NCCc3ccccc32)c1,-10,x,-1.5,x,x,
CC(C)N=C(NC#N)SCc1ccccc1,-4,-37,6.5,-6%,0,
COC(=O)[C@H](NC(=O)c1cc(-c2ccccc2)nc2ccccc12)c1ccccc1,3,x,3.0,1.7µM*,x,
Cc1ccc(S(=O)(=O)N2CCC(C(=O)N[C@@H](C)C(=O)NC3CCCCC3)CC2)cc1,-9,-5,0.0,-7%,10,Arbovirus inh repeat=6
CCC(C)(C)n1nnnc1C(c1ccc(N(C)C)cc1)N1CCN(C2CCCCC2)CC1 (stereo not drawn),x,-22,x,1%,-7,
O=C(COC(=O)CNC(=O)c1cccc([N+](=O)[O-])c1)NCc1ccco1,-11,x,1.9,0%,0,
CN(C)S(=O)(=O)c1ccc(C(=O)Nc2nnc(SCc3ccccc3)s2)cc1,2,-24,-3.2,7%,-7,
O=c1cc(CO)oc(CN2CCN(c3ccccc3)CC2)c1O,-10,-13,-1.9,-13%,-2,
C=CCN=C1CC(C)(C)CC(=O)/C1=C(\O)CCCN1C(=O)c2ccccc2C1=O,-2,x,2.8,-1%,-3,
COc1ccc(C(=O)N2CCN(c3ccccc3)CC2)cc1S(=O)(=O)N1CCCC1,-8,x,4.8,x,x,
CCN(CC)c1nc(-c2ccc(Cl)cc2)cc(C(F)(F)F)c1C#N,0,-18,-3.7,-4%,-6,
CCn1c2ccccc2c2cc(NC(=O)C3CCN(S(=O)(=O)c4cccs4)CC3)ccc21,-2,x,2.4,0%,-8,Arbovirus inh repeat=-6
Cc1ccc(S(=O)(=O)NCCC(=O)OCn2nnc3ccccc3c2=O)cc1,16,5,-1.2,3%,1,
Cc1ccc(C2C(C#N)=C(N)Oc3n[nH]c(-c4cccs4)c32)s1 (stereo not drawn),-8,-23,67*,-1%,-1,
Cc1ccc(Nc2nc(=O)c3cccnc3s2)cc1,0,-20,-2.0,19%,-2,
Nc1nc(N)c2c(n1)CCCC2,-5,x,-1.0,6%,x,
N/C(=N\OC(=O)Nc1ccccc1)c1cccc(C(F)(F)F)c1,34,x,-1.5,x,x,
COc1ccccc1CNC(=O)OCc1nccnc1C(=O)Nc1ccc(Br)cn1,-4,x,-90,x,x,
O=C(Oc1ccc(-c2cnc3ccccc3n2)cc1)c1cccc([N+](=O)[O-])c1,15,-39,1.7,24%,4,
N#Cc1ccccc1Oc1ccccc1C=O,3,x,0.6,8%,-6,
COc1ccc(C)cc1NC(=O)C1CCC(CNc2c(N3CCOCC3)c(=O)c2=O)CC1 (stereo not drawn),-2,-3,-4.6,5%,-2,
COc1ccc2[nH]c(C(=O)N3CCc4ccccc4C3)c(C)c2c1,7,x,-1.4,x,x,
COC(=O)c1ccccc1COn1c(=O)c(C)[n+]([O-])c2ccccc21,1,-11,-1.9,-1%,8,
CC(=NCc1cccnc1)c1c(O)n(-c2ccccc2C)c(=O)[nH]c1=O,-13,-23,0.2,-13%,6,
Cc1ccc(-c2[nH][nH]c(=O)c(=O)c2N=Nc2ccccc2)cc1,x,x,-2.9,-8%,x,
CCN1CCN(C(=O)CN(CCc2ccccc2)S(C)(=O)=O)CC1,2,-5,4.8,-4%,-3,
Cc1cccc(OCCCSc2nc3ccc(C)cc3[nH]2)c1,88,-39,12,7%,-26,
C=CCSc1ncnc2sc(C)c(C)c12,7,-8,3.3,5%,-7,
O=C(CSc1nc2ccsc2c(=O)n1NC(=O)c1ccccc1)NCc1ccco1,-3,-21,-0.8,-8%,5,
COc1cccc(NC(=O)c2nc(SC)ncc2Cl)c1,-4,x,0.3,x,x,
CC(C)(C)N(NC(=O)c1ccccc1)C(=O)c1cccc(C(=O)N(NC(=O)c2ccccc2)C(C)(C)C)c1,-11,-7,0.0,0%,4,
Cc1ccnc(NC(=O)c2ccc(OCC3CCCO3)cc2)c1 (stereo not drawn),-4,x,-2.1,x,x,
CN(CC(=O)Nc1ccc(F)c(F)c1)S(=O)(=O)c1cccc2cccnc12,-4,x,2.2,x,x,
Cc1ccc(OCC(O)Cn2c(=N)n(Cc3ccccc3)c3ccccc32)cc1 (stereo not drawn),70,-6,8.4,-13%,-33,
COc1cc(OC)nc(NC(=O)C(C)C)n1,4,-35,-1.2,-5%,-3,Arbovirus inh repeat=0
CCN(CC)CCN1C(=O)C(O)=C(C(=O)c2cccs2)C1c1ccccn1 (stereo not drawn),-2,-22,-0.8,-9%,2,
CCc1nc(SCC(N)=O)c2c(=O)n(C)c(=O)n(C)c2n1,-7,-43,0.7,5%,-3,
Cn1nc(C(=O)N2CCN(c3ccccc3)CC2)c2c1-c1ccccc1S(=O)(=O)C2,4,x,-0.7,x,x,
COc1ccc(CCNc2nc(Cl)nc(NC(C)(C)CO)n2)cc1OC,0,x,1.6,x,x,
CC(=O)c1cccc(NC(=O)NNC(=O)c2ccc3ccccc3c2)c1,-3,x,-2.1,x,x,
Cc1cc(NC(=O)C(C)C)n(-c2nc3ccccc3s2)n1,16,x,1.7,13%,1,
O=c1[nH]cnc(O)c1C(c1ccc2c(c1)OCO2)c1c(O)nc[nH]c1=O,4,x,-3.3,-3%,5,
Cc1ccc(Sc2ccc([N+](=O)[O-])cc2[N+](=O)[O-])nc1,11,-18,3.9,10%,-10,

# Compounds above with a furan ring, fused or not (four):
SMILES,Mtb bLac sens,YopH inh,RecA intein inh,Mtb growth,Arbovirus inh,others
COc1ccccc1-c1noc(-c2ccco2)n1,-2,-9,-0.9,-4%,-5,
c1coc(C2=NCCc3ccccc32)c1,-10,x,-1.5,x,x,
O=C(COC(=O)CNC(=O)c1cccc([N+](=O)[O-])c1)NCc1ccco1,-11,x,1.9,0%,0,
O=C(CSc1nc2ccsc2c(=O)n1NC(=O)c1ccccc1)NCc1ccco1,-3,-21,-0.8,-8%,5,

# The listing continues:
SMILES,Mtb bLac sens,YopH inh,RecA intein inh,Mtb growth,Arbovirus inh,others
Cc1ccccc1CN1CCNC(=O)C1CC(=O)NCCN1CCCCC1=O (stereo not drawn),-3,x,-3.6,x,x,
O=C(c1cccc(C(F)(F)F)c1)C1CCCN(Cc2ccc(OCCO)cc2)C1 (stereo not drawn),-3,x,-1.3,-3%,-36,
COc1ccc(Cc2nnc(SC(C)C(=O)Nc3ccc(F)cc3Cl)o2)cc1 (stereo not drawn),5,x,-0.2,x,x,
CC(=O)c1c(N2CCN(C)CC2)[nH]c(-c2ccccc2)nc1=S,100,14,0.7,39%,9,
CN1CCc2cc(Cl)c(O)cc2[C@@H](c2ccccc2)C1,-4,x,0.0,-1%&6%,3,
CN1CCN(CC#CCC(O)(c2ccccc2)C2CCCC2)CC1 (stereo not drawn),-7,-17,1.2,-12%,-22,
Cn1c(=O)c2sccc2n2c(CCCC(=O)NCc3ccco3)nnc12,4,x,-0.2,x,x,
O=C(N/N=C(\Cc1ncc[nH]1)c1ccccc1)c1cccnc1,3,x,-5.8,4%,-25,
CCCCCCNS(=O)(=O)c1ccc(OC)c(OC)c1,-19,-49,-2.9,0%,9,
CCOc1ccc(C(=O)N2CCC(C(=O)c3ccc4c(c3)OCCO4)CC2)cc1,35,-11,2.1,-3%,4,
CCOc1ccc(C(=O)C(CCC(CN(C)C)C(=O)c2ccc(OCC)cc2)CN(C)C)cc1 (stereo not drawn),x,-16,2.2,-6%,-35,
COc1cccc(CNC(=O)C2CC(=O)N(c3ccc4c(c3)OCCO4)C2)c1 (stereo not drawn),-13,x,2.2,x,x,
COc1cccc(OCC(O)CN2C(C)CCCC2C)c1 (stereo not drawn),3,-21,-2.1,3%,-15,
COc1ccc(CCNC(=O)C/C(C)=N/NC(=O)C(c2ccccc2)c2ccccc2)cc1OC,3,x,1.4,-9%,x,
COc1cc(/C=N/NC(=O)C(C)Nc2n[nH]c(=O)[nH]c2=O)ccc1O (stereo not drawn),u,-25,-1.0,4%,6,
Cc1cc(=O)[nH]c(N2CCN(C(=O)c3ccco3)CC2)n1,-3,x,-1.2,x,x,
O=C(Nc1nnc(-c2ccccn2)o1)c1ccc(Br)cc1,92,-24,2.3,x,-15,
CC1C(=O)N2CCCc3cc(S(=O)(=O)N(C)c4ccccc4)cc1c32 (stereo not drawn),5,x,0.4,x,x,
O=C(NCC1CCCO1)c1ccc(CS(=O)(=O)c2c(Cl)cccc2Cl)o1 (stereo not drawn),2,-27,0.2,-6%,4,
Cc1ccc(S(=O)(=O)N2CCOCC2)cc1NC(=O)CSc1n[nH]c(N)n1,-1,x,-0.4,7%,5,
CC(NC(=O)c1cc(=O)[nH]c2ccccc12)c1ccccc1 (stereo not drawn),7,x,-0.4,10%,-4,
CCOCCCNC(=O)C1CCN(S(=O)(=O)c2c(C)noc2/C=C\c2ccc(OC)cc2)CC1,u,0,7.2,2%,x,
Cc1nnc(N2CCCCC2)c2ccccc12,37,-22,0.5,34%,6,
O=C(O)c1ccc(CN2CCOCC2)o1,0,x,-1.6,2%,0,
O=C(CSc1n[nH]c(-c2cccs2)n1)NC1CCS(=O)(=O)C1 (stereo not drawn),-9,x,-0.5,x,x,
COc1cccc(CN2CCNC(=O)C2CC(=O)N(Cc2cnn(C)c2)C(C)C)c1 (stereo not drawn),-1,x,0.4,-8%,-3,
Cc1cc(C)cc(NC(=S)N2CCC(NC(=O)c3ccc(F)cc3)CC2)c1,6,x,2.5,x,x,
COc1ccc(NC2CCCN(C(=O)c3cccc(C)n3)C2)cc1OC (stereo not drawn),2,x,-3.2,x,x,
COc1ccc(-c2cn3cc(C)ccc3n2)cc1F,16,x,x,25%,-7,
COc1cccc(Nc2c(Nc3cccc(OC)c3)c(=O)c2=O)c1,2,x,-5.6,x,x,
CSc1ccc(CN(C)C(=O)CNC(=O)c2ccc3c(c2)OCO3)cc1,-6,x,0.9,x,x,
COc1ccc(/C=C(/C(=O)c2cccs2)N2C=CC=CC2=C(C#N)C#N)cc1,x,-25,0.4,-3%,-32,

# Quoted at random: three entries already listed.
SMILES,Mtb bLac sens,YopH inh,RecA intein inh,Mtb growth,Arbovirus inh,others
COc1cccc(CN2CCNC(=O)C2CC(=O)N(Cc2cnn(C)c2)C(C)C)c1 (stereo not drawn),-1,x,0.4,-8%,-3,
O=C(O)c1ccc(CN2CCOCC2)o1,0,x,-1.6,2%,0,
COc1ccc(-c2cn3cc(C)ccc3n2)cc1F,16,x,x,25%,-7,

# Assay outcomes (PubChem)
